Screening results as filed in PubChem BioAssay.
HNF4A DNA FP = change in binding of human HNF4A to DNA, primary screen, biochemical, fluorescence polarization, FITC-DNA; Hepatocyte nuclear factor 4-alpha (Homo sapiens), P41235; actives 0.3% (n = 360,000); 1 h; activity change, % at 10 µM; AID 1224865, 2016; in the data active = activity change above about 30%, passing the limit was not always enough;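 also: controls were the assay level and a saturating level of protein; the project sought stronger binding though the title names inhibitors; some compounds called inactive have numbers as strong as hits; positive values seem to mean higher polarization but the record does not say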
UCH37 inh = inhibitors of human UCH37 deubiquitinase, primary screen, biochemical, Ub-AMC cleavage, fluorescence. Ubiquitin carboxyl-terminal hydrolase isozyme L5 (Homo sapiens), Q9Y5K5. purified proteasome/UCH37. inhibition, % (no concentration beside the values). actives 0.33% (n = 330,000). AID 588478, 2011;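 active = mean of two replicates above 20%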;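 also: 0% = compound-free wells with enzyme and 100% = wells lacking proteasome; stock transfer was 100 nL into about 20 µL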
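Schedule: 30 min plus 25 min, room temperature / Material: human UCH37 within purified proteasomes / Technique: AMC fluorescence intensity at 355/460 nm / Buffer or medium: pH 7.4 Tris-HCl (50 mM) with ovalbumin, ATP-MgCl2, DTT / Controls: wells without proteasome as full block, compound-free enzyme plus substrate as uninhibited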
E coli growth = E. coli growth inhibition, primary screen, OD600; AID 1053175, 2014; Escherichia coli growth, 23 h; active compounds read low; actives 0.21% (n = 330,000); OD600 absorbance (no concentration beside the values);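 active = OD600 absorbance below the run mean of sample wells minus 3.6 SD, in any replicate, cut at about 0.56 in these data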;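 also: stock transfer was 300 nL into about 60 µL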
FGF22 binding = binders of human FGF22 protein, primary screen, FGF22 synaptogenesis inhibitor project, biophysical, thermal shift, single point; Fibroblast growth factor 22 (Homo sapiens), Q9HCT0; recombinant FGF22 thermal shift, SYPRO orange fluorescence; percent of sucrose octasulfate shift, DMSO zero; calls only at 9.99 µM; actives 1.5% (n = 340,000); AID 651658, 2012;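 active = melting point raised past a set limit in the mean and every replicate; inconclusive = no clear call; three in four hits are not shown here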
Target sequence (Q9HCT0 whole entry, looked up): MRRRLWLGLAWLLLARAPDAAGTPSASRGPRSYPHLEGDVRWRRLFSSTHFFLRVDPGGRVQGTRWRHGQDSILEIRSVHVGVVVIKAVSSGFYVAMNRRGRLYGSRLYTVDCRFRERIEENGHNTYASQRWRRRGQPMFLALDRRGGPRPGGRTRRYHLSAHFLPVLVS
AF4-AF9 inh = inhibitors of AF4 peptide binding to AF9, primary screen, biochemical, AlphaScreen, biotin-AF4 peptide, FLAG-AF9, single point; Protein AF-9 (Homo sapiens), P42568; AID 651704, 2012; inhibition, % at 10 µM; actives 0.47% (n = 350,000);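 active = every replicate reaching a set inhibition limit, whatever the replicate mean, cut at about 25% in these data; inconclusive = mean inhibition reaches that limit but some replicates miss it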;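 also: 0% = plate neutral control median and 100% = total signal loss; the record names both 10 and 1 µM as test concentration; the first replicate is given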
Target sequence (P42568 whole entry, looked up): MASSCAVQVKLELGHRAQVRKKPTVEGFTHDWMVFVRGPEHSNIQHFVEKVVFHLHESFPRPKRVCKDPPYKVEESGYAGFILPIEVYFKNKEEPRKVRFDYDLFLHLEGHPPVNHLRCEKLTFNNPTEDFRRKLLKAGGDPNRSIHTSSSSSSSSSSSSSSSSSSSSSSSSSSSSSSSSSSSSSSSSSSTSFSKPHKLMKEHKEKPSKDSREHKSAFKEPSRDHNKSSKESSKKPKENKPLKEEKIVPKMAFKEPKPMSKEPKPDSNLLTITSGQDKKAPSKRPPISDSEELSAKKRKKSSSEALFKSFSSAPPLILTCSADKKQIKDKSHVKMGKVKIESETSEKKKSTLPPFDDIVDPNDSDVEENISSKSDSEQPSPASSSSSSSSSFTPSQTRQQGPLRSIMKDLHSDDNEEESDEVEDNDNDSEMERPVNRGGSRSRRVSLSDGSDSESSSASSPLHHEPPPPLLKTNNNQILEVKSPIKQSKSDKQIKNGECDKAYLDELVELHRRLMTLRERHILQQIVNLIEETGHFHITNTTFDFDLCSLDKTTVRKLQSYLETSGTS
RanGTP-Imp inh = inhibitors of RanGTP-importin-beta interaction, primary screen, biochemical, FRET, CFP-Ran, YFP-importin-beta, homogeneous | Ran GTPase (GTP-bound) - importin-beta complex | cell-free CFP-Ran/YFP-importin-beta FRET ratio | inhibition, % (test concentration not listed) | actives 1.1% (n = 300,000) | AID 2216, 2009;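 active = most replicates above 15%; inconclusive = exactly half above 15%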;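 also: 0% = DMSO wells and 100% = Ran loaded with GDP instead of GTP; wells of about 40 µL received 100 nL stock; the first replicate is given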
Vif TR-FRET = inhibitors of Vif binding to APOBEC3G peptide, primary screen, biochemical, TR-FRET, GST-Vif 1-94, biotin-A3G peptide, dose response retest (AID 1117319) | Virion infectivity factor (Human immunodeficiency virus type 1 group M subtype B (isolate … | TR-FRET GST-Vif / biotin-A3G peptide binding; higher % means a stronger effect; test concentration not given here; strong numbers were not always called active | inhibition, %, or IC50 in µM where a hit was titrated | actives 0.57% (n = 260,000);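 active = above the screen mean plus three standard deviations and confirmed in dose response; inconclusive = results disagree or hit not tested in dose response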;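 also: Vif residues 1-94 fused to GST binding biotinylated APOBEC3G peptide 110-148; 0% = full assay without inhibitor and 100% = GST in place of GST-Vif; retest series ran down from 100 µM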
* = called active by the depositor; i = inactive; ? = inconclusive; · = no result given; & = joins results of further samples. Some of the compounds tested. The share of hits here may be higher or lower than overall.

compound,HNF4A DNA FP,UCH37 inh,E coli growth,FGF22 binding,AF4-AF9 inh,RanGTP-Imp inh,Vif TR-FRET
Cc1ccnc(NC(=O)CCNS(=O)(=O)c2ccc(C)c(C)c2)c1,-5.7,2.3,0.7,i,2.8,0.4,·
CS(=O)(=O)c1ccc(Nc2nc(C(N)CCc3ccccc3)cs2)cc1 (centres undefined),-1.9,·,·,i,3.4,·,·
O[C@@H]1CN(CC2CCCCC2)[C@@H](c2ccccc2)C[C@H]1n1cc(-c2ccc(F)cc2)nn1,1.8,·,·,i,0.4,·,5%
CC(C)OC(=O)CSc1nnc2c3ccccc3n(C)c2n1,-0.5,2.8,0.68,i,-2.5,·,-2%
CC(C(=O)Nc1nccs1)N1C(=O)C2CC=CCC2C1=O (centres undefined),-0.8,1.5,0.74,·,·,-2.2,-2%
O=C(Nc1ccc(NC(=O)c2ccc3c(c2)OCCO3)cc1)c1ccccc1,-4.0,-0.1,0.63,i,-0.7,0.3,5%
Cc1nn(Cc2cccc(C(N)=O)c2)c(C)c1Br,-2.7,0.0,0.65,i,1.6,2.9,-2%
Cc1cc(C)n(/N=C/c2ccccc2O)c(=O)c1,-1.0,·,·,i,0.8,?,-11%
CCCCC(=O)Nc1c2c(nn1-c1cccc(C)c1C)CS(=O)(=O)C2,1.0,3.9,0.68,i,1.6,1.7,2%
O=C(NC1CCCCCC1)C1CCCN1S(=O)(=O)c1cccc2cccnc12 (centres undefined),-0.6,2.8,0.67,i,3.4,?,0%
CC(=O)Nc1ccc(S(=O)(=O)Nc2cc(C)cn(Cc3ccccc3)c2=O)cc1,-2.0,6.8,0.66,·,·,7.4,-6%
CC(C)CN1CCN(Cc2ccc(C#CC(C)(C)O)cc2)CC1CCO (centres undefined),-1.0,3.2,0.7,i,2.6,2.0,25%
Cc1ccc(NC(=O)CCCCCC2NC(=O)NC2C)cc1 (centres undefined),-1.0,2.7,0.69,i,97*,-6.2,0.71µM*
S=C(NCc1ccccn1)NN=Cc1ccccn1,1.5,·,·,i,4.5,·,·
O=C(CCNC(=O)c1ccc(Br)cc1)NNC(=O)C1COc2ccccc2O1 (centres undefined),-5.1,1.9,0.6,i,-2.8,2.1,-2%
CC(=O)Nc1cc(-c2ccc(N3CCN(C)CC3)cc2)cn2c(-c3cccc(C(C)=O)c3)cnc12,7.3,·,·,i,17,·,·
COc1ccc(N2CCN(C(=O)COC(=O)CCc3ccccc3)CC2)cc1,1.3,1.2,0.71,i,-3.7,·,-3%
CCC(=O)N1N=C(c2cccs2)CC1c1ccco1 (centres undefined),-1.5,-5.9,0.71,i,1.7,-5.5,-8%
Cc1sc2ncnc(NCCN3CCOCC3)c2c1C,1.2,7.1,0.66,·,·,4.4,19%
CC1(C)C2CCC1(C)C(OC(=O)C[n+]1ccccc1)C2 (centres undefined),2.1,-1.6,0.72,i,5.1,?,65%

Retrieved one by one from the list above, 2 records:
compound,HNF4A DNA FP,UCH37 inh,E coli growth,FGF22 binding,AF4-AF9 inh,RanGTP-Imp inh,Vif TR-FRET
Cc1ccnc(NC(=O)CCNS(=O)(=O)c2ccc(C)c(C)c2)c1,-5.7,2.3,0.7,i,2.8,0.4,·
Cc1sc2ncnc(NCCN3CCOCC3)c2c1C,1.2,7.1,0.66,·,·,4.4,19%

(cont.)
compound,HNF4A DNA FP,UCH37 inh,E coli growth,FGF22 binding,AF4-AF9 inh,RanGTP-Imp inh,Vif TR-FRET
O=C1Nc2ccccc2C1=Nc1cccc(Cl)c1,2.6,3.7,0.62,i,1.8,?,-13%
Cc1ccc(C(=O)NCC(=O)Nc2ccccc2C(F)(F)F)cc1,0.3,4.0,0.69,i,3.5,-1.6,27%
COc1ccc(-c2nc3ccc(C)cc3c(=O)o2)cc1OC,3.6,-77,0.67,i,-2.0,-6.6,-2%
O=C(c1ccc([N+](=O)[O-])s1)N1CCCc2ccccc21,-2.1,5.5,0.69,i,6.9,1.5,5%
CCOc1nc(CC)nc(NC(=O)NS(=O)(=O)c2ccccc2Cl)n1,-1.1,4.0,0.77,·,·,0.4,?
O=S(=O)(c1ccc(F)cc1)n1ccc(-c2cccc(OCc3c(F)cccc3Cl)c2)n1,1.6,0.9,0.68,·,·,-6.8,28%
N#Cc1cc2nc(O)c(O)nc2cc1[N+](=O)[O-],-0.4,8.1,0.69,i,-0.6,·,·
Cc1cc(C)cc(C(=O)Oc2cc(C)[nH]c(=O)c2[N+](=O)[O-])c1,-0.4,9.5,0.73,i,0.3,-16,·
CC(=O)c1c(C)[nH]c(C(=O)OCC(=O)N2CCc3ccccc32)c1C,0.8,1.5,0.73,·,·,4.5,-2%
O=C(COC(=O)c1ccccn1)Nc1cccc(Cl)c1Cl,-1.1,1.8,0.67,·,·,4.3,-8%
CCCCNC(=O)[C@]1(C)CCC[C@@]2(C)C3CC[C@@]4(C)C[C@]3(CCC21)CC4=O (some centres undefined),-2.1,-2.1,0.65,i,2.6,·,·
CCCNc1c(N)c(=O)oc2ccccc12,1.7,6.7,0.68,i,-30,3.4,2%
COc1ccc(C(=O)O)cc1S(=O)(=O)Nc1cc(C(F)(F)F)ccc1N1CCCCC1,-1.1,·,·,i,-5.1,·,2%
N#Cc1ccc(NC(=S)NCCN2CCOCC2)cc1,0.4,4.4,0.67,i,-2.9,1.8,1%
CC(C)(C)N(Cc1ccccc1)C(=O)COc1cccnc1[N+](=O)[O-],1.4,1.0,0.68,i,0.6,-3.7,-3%
CCOC(=O)c1ccc(NC(=O)N2CCN(C(=O)c3ccco3)CC2)cc1,1.9,1.2,0.67,i,-1.6,8.2,·
COC(=O)C1CCN(S(=O)(=O)c2c(C)n(C)c(=O)n(C)c2=O)CC1,-1.7,0.4,0.73,i,4.0,0.7,-3%
O=C(/C=C/c1cccc(Cl)c1)Nn1c(-c2cccs2)nc2ccccc2c1=O,3.3,5.9,0.69,i,-1.1,?,·
Cc1cc2c(cc1C)NC(C)CC(=O)N2 (centres undefined),4.3,4.4,0.67,i,-0.1,·,0%
C[C@H]1COC(=O)[C@@H](Cc2ccc(F)cc2)C/C=C\C[C@@H](CC(=O)NCCO)C(=O)N1,-1.9,1.9,·,i,2.1,·,·
COC(=O)C1=C(CSc2nc3c(cc2C#N)CN(C)CC3)OC(N)=C(C#N)C1c1ccccc1F (centres undefined),-17,-22,0.7,·,·,24*,25%
Cc1ccc(NC(=O)CSc2n[nH]c(-c3ccco3)n2)c(C)c1,-26,3.2,0.66,i,-1.7,-3.2,5%
O=C1CSC(c2cccnc2)N1Cc1ccc(Cl)cc1Cl (centres undefined),0.3,4.9,0.71,i,2.1,0.8,23%
COc1ccc(N(C(=O)C(C)C)S(=O)(=O)c2cccc3cccnc23)cc1,0.8,-1.3,0.71,i,-1.4,-2.2,1%
CC(C(=O)N1CCCc2c1c(=O)oc1ccc(O)cc21)N1CCc2ccccc2C1 (centres undefined),-0.1,7.0,0.78,·,·,2.1,?
COc1ccc(/C=C/C(=O)OCC(=O)NC(C)CCc2ccccc2)cc1OC (centres undefined),3.4,-22,0.68,i,1.8,·,·
CC1C/C(=N/N2C(=O)CSC2=S)CC(C)(C)C1 (centres undefined),-1.1,·,·,·,·,-0.8,>100µM*
COc1ccccc1-n1nnnc1SCC(=O)Nc1ccccn1,-4.8,4.5,0.7,·,·,3.3,0%
O=C(c1cccs1)N1CCN(S(=O)(=O)c2cccs2)CC1,4.0,2.5,0.66,i,-23,7.5,-9%
COc1cc(NC(=O)CCS(=O)(=O)c2ccc3c(c2)oc(=O)n3C)cc(OC)c1,-1.1,2.0,0.67,i,-2.2,0.1,·
Nc1ccccc1S(=O)(=O)C(F)F,-1.4,5.8,0.68,i,13,-0.8,16%
O=C(COc1ccccc1F)Nc1ccc2c(c1)CCC2,-3.2,-0.8,0.68,i,-0.9,·,·
CN(C(=O)CCN1C(=O)C(C)(C)Nc2ccccc21)c1ccccc1,-0.2,3.7,0.72,·,·,·,-1%
CC(=O)N1C(=O)C2(C(C#N)=C(N)Oc3n[nH]c(-c4ccccn4)c32)c2ccccc21 (centres undefined),-2.6,2.6,0.67,·,·,-1.9,-8%
Cc1cccc(NC(=O)c2ncn3c2C(=O)N[C@@H](C)C3)c1,2.0,·,·,i,-1.8,·,-4%
COc1cccc(NC(=O)c2ccccc2SC)c1,1.9,4.0,0.72,·,·,-1.3,-4%
Cc1cc(=O)nc2c3ccccc3n(C(C)C(=O)Nc3c(F)c(F)c(F)c(F)c3F)n12 (centres undefined),2.5,-9.7,0.68,i,-2.2,-3.6,6%
O=c1cc(O)c2sc(Nc3ccc(F)c(Cl)c3)nc2[nH]1,9.6,4.7,0.66,i,-1.9,1.4,?
CCc1ccccc1N(CC(=O)NCc1ccco1)C(=O)c1snc(C(N)=O)c1N,-2.8,-17,0.68,·,·,-1.9,4%
O=C(O)c1nn(CC(=O)N2CCC(Cc3ccccc3)CC2)c(=O)c2ccccc12,0.4,5.8,0.7,i,-0.3,3.9,·
CC(C)C(NC(=O)c1ccccc1F)C(=O)NCC(c1ccco1)N1CCCCC1 (centres undefined),-2.3,-1.6,0.71,i,-7.1,·,-3%
Cc1ccc2cc(/C=N/NC(=O)[C@H]3C[C@@H]3c3ccccc3)c(Cl)nc2c1,5.5,·,·,i,-0.5,0.3,-1%
O=C(NCc1ccco1)c1ccc(CS(=O)(=O)c2cccc(C(F)(F)F)c2)o1,1.1,3.9,0.68,·,·,-2.5,-2%
CCOc1ccccc1N1Cc2ccccc2C1,-0.7,3.8,0.75,·,·,-2.0,12%
COc1ccc(OC)c(CCNC(=O)CN2C(=O)CC(C)(C)S(=O)(=O)c3ccccc32)c1,2.8,4.8,0.71,i,3.8,?,-1%&4%
